# MARV entry inh: qHTS for inhibitors of binding or entry into cells for Marburg Virus | Marburg virus pseudotyped entry inhibition, cell reporter; control for the full effect not named in the record; about a third of the inactives were read at about 46 µM | Potency, µM (series often up to 37.8 µM), for inactives: at the top dose activity change, negative = inhibition, actives largely listed as inhibitors | 1.8% of 300,000 active; active = well fitted inhibition curve with a large enough effect; inconclusive = small, poorly fitted or top-dose-only effect, or effect the other way; inactive = flat fitted curve, though single readings scatter; tested in HEK293 cells; about a fifth of its hits are not listed in these tables; further: on the % scale 0 is the no-effect control and ±100 the full control effect; luciferase read-out
# RE007 growth inh: qHTS Assay for Inhibitors of the HIV-1 protein Vpr; S. pombe RE007 Vpr strain, BacTiter-Glo ATP luminescence, 24 h; control for the full effect not named in the record; Potency, µM (series often up to 92.2 µM), for inactives: at the highest dose activity change, negative = less growth; 0.21% of 360,000 active; AID 651644, 2012; active = well fitted falling curve with a large enough effect; inconclusive = small, poorly fitted or top-dose-only effect; inactive = no such curve, though single readings can be large or run the other way;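 further: on the % scale 0 is the no-effect control and ±100 the full control effect; nearly all actives have a fitted effect of over 50% in size; the assay follows cell death caused by Vpr and the record does not say whether a fall means rescue or toxicity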
#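 Fission yeast strain RE007, carrying one chromosomally integrated HIV-1 vpr copy, was seeded at OD 0.01 in PMG+AL medium with 23 nL pinned compound. After 24 h at 30 °C and 99% humidity, viability was read by BacTiter-Glo luminescence.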
# Cruzain inh Det: qHTS Assay for Promiscuous and Specific Inhibitors of Cruzain (with detergent) | Cruzipain (Trypanosoma cruzi), P25779 | purified cruzain, Z-FR-AMC fluorescence, 0.01% Triton | Potency, µM, for inactives: max response, negative = inhibition, hits mostly inhibitors | 0.43% of 200,000 active | AID 1478, 2009; active means well fitted curve in the direction sought with a large enough effect; inconclusive means small, poorly fitted or top-dose-only effect, or another doubt; inactive means no such curve, though single readings can be large; an effect the other way counts as inactive or inconclusive;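 further: plate controls were neutral wells for no effect and buffer without enzyme for full effect; nearly all actives have a fitted effect of over 40% in size; top concentration of the series not given in the record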
# Target sequence (P25779 123-467 limits assumed): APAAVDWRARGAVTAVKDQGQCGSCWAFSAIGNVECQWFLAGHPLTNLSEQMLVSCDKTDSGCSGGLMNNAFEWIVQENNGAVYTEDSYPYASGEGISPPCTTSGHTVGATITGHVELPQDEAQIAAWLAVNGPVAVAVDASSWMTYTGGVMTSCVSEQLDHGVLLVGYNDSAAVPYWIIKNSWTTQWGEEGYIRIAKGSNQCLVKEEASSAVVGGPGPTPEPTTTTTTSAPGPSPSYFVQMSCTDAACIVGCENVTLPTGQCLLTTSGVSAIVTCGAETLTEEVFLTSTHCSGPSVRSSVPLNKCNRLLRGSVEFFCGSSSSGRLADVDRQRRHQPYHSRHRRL
#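 15 min RT preincubation of 1.5 nM cruzain with compound, then 2 uM Z-FR-AMC added; kinetic AMC fluorescence, 60 s delta. Triton X-100 0.01%, pH 5.5.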
# SARS PLP yeast: qHTS of Yeast-based Assay for SARS-CoV PLP. S. cerevisiae expressing SARS-CoV PLpro, growth rescue; control for the full effect not named in the record. 0.19% of 330,000 active. Potency, µM (top dose mostly 32.9 µM), inactives show at the highest dose activity, positive = growth rescue; further: 0% is about no effect; nearly all actives have a fitted effect of over 55% in size; growth read by luminescence after 48 h
# StopGo reporter: High Throughput Screening for Foot and Mouth Disease Virus Antivirals; human cells with a luciferase reporter of 2A StopGo recoding; control for the full effect not named in the record; Potency, µM (doses to about 57.9 µM), for inactives: top-dose signal change, negative = less light; 1.2% of 410,000 active; AID 1159524, 2015; active = well fitted falling curve with a large enough effect; inconclusive = small, poorly fitted or top-dose-only effect; inactive = no such curve, though single readings can be large or run the other way; tested in HEK293T cells; further: on the % scale 0 is the no-effect control and ±100 the full control effect; nearly all actives have a fitted effect of over 45% in size; luciferase light after 4 h
# Cruzain noTriton: qHTS Assay for Promiscuous and Specific Inhibitors of Cruzain (without detergent). Potency, µM, without a hit: max response, negative = inhibition, actives largely listed as inhibitors. 2.3% of 200,000 active. purified cruzain, Z-FR-AMC fluorescence, no detergent. Cruzipain (Trypanosoma cruzi), P25779. AID 1476, 2009; active means well fitted curve in the direction sought with a large enough effect; inconclusive means small, poorly fitted or top-dose-only effect, or another doubt; inactive means no such curve, though single readings can be large; an effect the other way counts as inactive or inconclusive;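 further: plate controls were enzyme without inhibitor for no effect and buffer without enzyme for full effect; nearly all actives have a fitted effect of over 40% in size; top concentration of the series not given in the record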
#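 Purified cruzain at 1.5 nM, pre-incubated 15 min with compound at room temperature in 100 mM sodium acetate pH 5.5, 5 mM DTT, 0.00005% Triton X-100. Reaction started with 2 uM Z-FR-AMC; AMC fluorescence increase over 60 s gives rate.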
# NS1 function inh: qHTS Assay for Inhibitors of Influenza NS1 Protein Function. 0.4% of 270,000 active. S. cerevisiae slowed by influenza A NS1, growth recovery by OD600. AID 2326, 2010. Potency, µM (highest dose often 46.1 µM), for inactives: at the top dose activity, positive = more growth; further: actives are rising curves; nearly all actives have a fitted effect of over 50% in size
#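 OD600 was taken as the measure of yeast growth restored by compound in an NS1-expressing S. cerevisiae strain. Cells had been washed out of glucose medium and diluted 1:100 into galactose -URA medium, pH 6.0.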
# LASV entry inh: qHTS for Inhibitors of binding or entry into cells for Lassa Virus; Potency, µM (doses to about 37.9 µM), for inactives: at the highest dose activity change, negative = inhibition, actives largely listed as inhibitors; 1.2% of 300,000 active; Lassa virus pseudotype entry inhibition, cell reporter; control for the full effect not named in the record; AID 540256, 2011; active means well fitted inhibition curve with a large enough effect; inconclusive means small, poorly fitted or top-dose-only effect, or effect the other way; inactive means flat fitted curve, though single readings scatter; tested in HEK293 cells; further: on the % scale 0 is the no-effect control and ±100 the full control effect; nearly all actives have a fitted effect of over 50% in size; luciferase read-out
# * hit, by the source's call; u = inconclusive; x = not tested or not shown; & = joins results of further samples; [ ] = remark or other dose. Unless noted, the call rests on the fitted dose curve; in most records, active means well fitted rising curve with a large enough effect; inconclusive means small, poorly fitted or top-dose-only effect; inactive means no such curve, though single readings can be large or run the other way. Potency means the concentration at half of the fitted maximal effect.
SMILES | SARS PLP yeast | LASV entry inh | StopGo reporter | NS1 function inh | Cruzain inh Det | Cruzain noTriton | MARV entry inh | RE007 growth inh
CCOC(=O)N1CCN(c2nnc(-c3ccccc3)c3ccccc23)CC1 | 0% | u | -22% | -31% | x | x | u | 33%
NCCCCCC(=O)Nc1ccncc1 | -7% | 22%[46.1 µM] | -6% | 3% | x | x | 22%[46.1 µM] | -1%
S=C(Nc1ccc(Br)cc1)NC1CCCCC1 | -50% | -23% | 92%[activator] | -29% | -4.5% | -14% | 0% | 7%
COc1cccc(NC(=O)CN(C)C(=O)CSc2ncnc3sc(C)c(C)c23)c1 | x | 0% | -18% | x | x | x | -3% | 1%
CN1CC(=O)Nc2ccc([N+](=O)[O-])cc2C1=O | -5% | 13%[46.1 µM] | -5% | 1% | x | x | 0%[46.1 µM] | 2%
CCc1ccc(NC(=O)/C(C#N)=C/c2cc3ccc(C)cc3nc2N2CCOCC2)cc1 | 9% | -5% | -25% | -2% | -4.5% | 2% | 1% | -14%
CCc1ccc(C(=O)c2cn(CC(=O)Nc3ccc(Cl)cc3)c3cc4c(cc3c2=O)OCO4)cc1 | x | u | 0% | x | -4.1% | u | 4.5µM* | x
COC(=O)c1ccc(C(=O)NCCCCO)cc1 | 0% | -1% | 8% | x | x | x | 9%[46.1 µM] | -6%
COc1ccc(Cl)cc1NC(=O)Cn1cc(C(=O)c2ccncc2)c(=O)c2cc(C)ccc21 | x | -1%[46.1 µM] | -13% | x | -2.4% | -5% | x | x
Cc1ccc(NC(=O)COC(=O)C2CCC2)cc1S(=O)(=O)N1CCOCC1 | -4% | 0%[46.1 µM] | 24% | x | x | x | 17% | 12%
Cc1ccc(/C=C2\SC(=S)N(CCCC(=O)Nc3ccccc3C(=O)O)C2=O)cc1 | 9% | x | u | 7% | x | x | x | -2%
CCN1CCN(S(=O)(=O)c2ccc(Cl)c(C(=O)N(C)C(c3ccccc3)c3ccccc3)c2)CC1 | -1% | u | -17% | x | x | x | u | 2%
N#Cc1c(-c2ccc(F)cc2)noc1N | -8% | -3% | 5% | -75% | -0.1% | -4% | 10% | 0%
COc1ccccc1N1CCN(C(=O)CCNS(=O)(=O)c2ccc3c(c2)CCN3C(=O)C2CC2)CC1 | x | -2%[46.1 µM] | u | x | -0.5% | u | x | x
COC(=O)C1=C(Nc2ccc(C)cc2)C=C(C)C(C(=O)OC)C1c1ccc(OC)cc1 (stereo not given) | -34% | u | 0% | 4% | -8.6% | -4% | u | -19%
N#Cc1cc2c([nH]c1=O)CCCC2 | 2% | x | -13% | -2% | x | x | 1% | 11%
Cc1ccc2nc(-c3ccc(SCC(=O)O)nc3)[nH]c2c1 | 8% | u | 16% | 2% | -2.9% | -5% | u | -20%
CCN1C(=O)C(O)(CC(=O)C(C)(C)C)c2cc(Br)ccc21 (stereo not given) | 0% | 20% | -9% | x | x | x | -28% | 13%
COc1ccc(-n2c(SCC(=O)O)nc3sc4c(c3c2=O)CCCC4)cc1 | 0% | -14%[46.1 µM] | -10% | 2% | x | x | 14%[46.1 µM] | -25%
CCOc1ccc2nc(NC3=NCN(Cc4ccco4)CN3)nc(C)c2c1 | 4% | x | x | 6% | -3.2% | -4% | x | x
COc1ccc(C(=O)NNC(=O)C(NC(=O)c2ccccc2NC(=O)c2ccco2)C(C)C)cc1 (stereo not given) | -13% | -2% | -17% | 27% | 0.5% | 5% | 17%[46.1 µM] | -9%
O=C1Nc2ccc3sc4ccccc4c3c2C1=O | 0% | u | 6% | -35% | x | x | 2% | -8%
CC(C)CCNC(=O)C1C2C=CC3(CN(Cc4ccccc4Cl)C(=O)C13)O2 (stereo not given) | 7% | x | -12% | 7% | 2.0% | 20% | x | -21%
COc1cccc(N=Nc2c(=O)[nH]n3c(=O)cc(C)[nH]c23)c1 | -4% | -2% | 45%[activator] | -4% | -9.5% | u | 13% | -9%
c1ccc(CSc2nnc([C@@H]3CCCN3)o2)cc1 | -7% | -3% | -2% | 11% | 0.4% | -2% | 4% | -1%[3.69 µM]
CCOCCCNC(=O)CN1C(=O)c2c(c3ccccc3n2C)C1c1ccc(OC)cc1 (stereo not given) | x | -24%[46.1 µM] | -15% | x | -4.2% | u | x | x
O=C(O)/C=C/c1ccc(Oc2ncccn2)cc1 | -1% | x | -10% | 2% | x | x | x | 4%
Cc1ccc(NN=C2c3ccccc3-c3ccccc32)cc1 | -10% | u | 46%[activator] | -3% | -9.4% | -14% | 2% | 3%
Cc1cc(C)c(C)c(S(=O)(=O)N2CCN(c3ncnc4sc(C)c(C)c34)CC2)c1C | -3% | -2% | u | 10% | x | x | -3% | 1%
COc1cc(C(=O)OCC(=O)c2cc(C)n(C)c2C)cc(OC)c1OC | -5% | -27% | -23% | -13% | -0.7% | u | u | -17%
Cc1cc(C)n(-c2n[nH]c(=O)c3ccccc23)n1 | -1% | x | -2% | 11% | x | x | x | 5%
COc1ccc(C(=O)Nc2ccc(S(=O)(=O)NC(C)(C)C)cc2)cc1[N+](=O)[O-] | 0% | x | -23% | 3% | x | x | x | 1%
CCCCC1=C(C(=O)OCC)C(C(=O)OCC)Oc2ccccc21 (stereo not given) | -16% | x | -4% | x | -4.5% | 5% | x | -3%
COc1cccc(OC)c1C(=O)Nc1ccc(CN2CCOCC2)cc1 | 3% | 11% | -21% | 1% | 1.3% | -5% | 5%[46.1 µM] | -3%
COC(=O)CNC(c1ccccc1)c1cc(Br)ccc1NC(C)=O (stereo not given) | 16% | -12% | 0% | -2% | x | x | u | -19%
O=C(NCCCO)C(=O)Nc1cc2c3c(c1)CCC(=O)N3CCC2 | -4% | x | -4% | -2% | x | x | x | 4%
CCC(C)[C@H](NC(=O)NC1CCCc2ccccc21)C(=O)O (stereo not given in full) | 8% | -1% | 18% | 14% | 4.1% | -7% | -21% | 6%
CCn1c(SCC(=O)NC2CCCC2)nnc1-c1ccccn1 | -1% | x | -2% | 9% | x | x | x | -2%
Cn1cccc1/C=C(\C#N)C(N)=S | 1% | 29% | 42%[activator] | 4% | x | x | 7% | 5%
O=C1NC(=O)/C(=C\c2ccc(N3CCOCC3)o2)N1 | 1% | -9%[46.1 µM] | 7% | x | x | x | 0%[46.1 µM] | 1%
CCCc1nc2c([nH]1)c(=O)n(C)c(=O)n2C | 1% | 5%[46.1 µM] | -8% | 4% | x | x | u | 23%
CCOC(=O)C1=C(CSc2nc3c(cc2C#N)CN(C)CC3)OC(N)=C(C#N)C1c1ccncc1 (stereo not given) | -4% | u | -9% | 14% | -6.9% | -4% | u | x
CC1CCN(S(=O)(=O)c2ccc3nc(N4CCN(c5ccccc5)CC4)ccc3c2)CC1 | -3% | 23%[46.1 µM] | -5%&-17% | -2% | 3.5% | -7% | x | 3%
COc1ccc(C)cc1NC(=O)CCN1CCCC1 | 0% | 2% | 28% | 13% | 2.7% | -2% | 7% | -3%
COC(=O)CNC(=O)c1cccc(-c2ccc(OC)cc2)c1 | -2% | 16% | 17% | -32% | x | x | 10%[46.1 µM] | -2%
CN(C)/C=N/N(C)c1ncccc1[N+](=O)[O-] | 0% | 16% | 3% | u | x | x | -6% | 1%
CCOC(=O)c1sc(NC(=O)CN2C(=O)NC3(CC(C)CC(C)(C)C3)C2=O)cc1C (stereo not given) | 0% | -10%[46.1 µM] | -17% | x | x | x | u | -4%
O=C(/C=C/c1ccc(Cl)cc1Cl)N(Cc1ccccc1)C1CCS(=O)(=O)C1 (stereo not given) | -12% | -23% | u | 1% | -4.6% | u | u | -1%
O=C(O)C1CCN(C(=O)c2ccccc2Cl)CC1 | 21% | -2% | -15% | -3% | 3.4% | -2% | 5% | 19%
COc1ccccc1N1CCN(C(=O)CSc2nnc(NC(=O)C3CC3)s2)CC1 | -8% | -10% | -21% | 0% | -0.7% | 10% | 16% | 0%
Cc1cc(C)n(-c2ccc(C(=O)NCc3ccc(F)cc3)cc2)n1 | 2% | 2%[46.1 µM] | -15% | x | x | x | -4%[46.1 µM] | 6%
C=CCOc1ccc(C2c3c(oc4ccccc4c3=O)C(=O)N2CCCN2CCOCC2)cc1 (stereo not given) | -3% | 1% | 30% | 15% | -3.6% | -5% | 19% | -9%
Clc1ccc2nc(-c3ccccc3)nc(C(Cl)Cl)c2c1 | -3% | u | -5% | -1% | x | x | u | -8%
Cc1ccc(CNC(=O)c2cc(-c3ccc(Cl)cc3)on2)cc1 | x | -1%[46.1 µM] | -15% | x | -1.1% | 9% | 5%[46.1 µM] | x
O=C(c1cc(-c2ccc(Cl)cc2Cl)on1)N1CCN(C(=O)c2ccco2)CC1 | -22% | 2% | -3% | -65% | -9.6% | u | u | -4%
Nc1nc(NCCN2CCOCC2)nc(NCc2ccccc2)c1[N+](=O)[O-] | 0% | x | -23% | 0% | x | x | x | -18%

# Profiles, quoted from the list.
# `Clc1ccc2nc(-c3ccccc3)nc(C(Cl)Cl)c2c1` is entered as SARS PLP yeast = -3%; LASV entry inh = u; StopGo reporter = -5%; NS1 function inh = -1%; Cruzain inh Det = x; Cruzain noTriton = x; MARV entry inh = u; RE007 growth inh = -8%
# `O=C(c1cc(-c2ccc(Cl)cc2Cl)on1)N1CCN(C(=O)c2ccco2)CC1` is entered as SARS PLP yeast = -22%; LASV entry inh = 2%; StopGo reporter = -3%; NS1 function inh = -65%; Cruzain inh Det = -9.6%; Cruzain noTriton = u; MARV entry inh = u; RE007 growth inh = -4%
